Compound activity deposited in PubChem BioAssay by several laboratories.
HTR5A ag – activates human HTR5A in OPRM1-OPRD1 agonist counter-screen; P47898; HTR5A agonist assay, luminescence, cell-based; activation, % at 9.3 µM; 340,000 tested, 0.61% active; in the data active = activation mostly above about 9.5%, no sharp cut-off; inactive = mostly below about 7.6%;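 also: 0% = cells with vehicle only and 100% = reference agonist; strong numbers were not always called active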
Target sequence (P47898 whole entry, looked up): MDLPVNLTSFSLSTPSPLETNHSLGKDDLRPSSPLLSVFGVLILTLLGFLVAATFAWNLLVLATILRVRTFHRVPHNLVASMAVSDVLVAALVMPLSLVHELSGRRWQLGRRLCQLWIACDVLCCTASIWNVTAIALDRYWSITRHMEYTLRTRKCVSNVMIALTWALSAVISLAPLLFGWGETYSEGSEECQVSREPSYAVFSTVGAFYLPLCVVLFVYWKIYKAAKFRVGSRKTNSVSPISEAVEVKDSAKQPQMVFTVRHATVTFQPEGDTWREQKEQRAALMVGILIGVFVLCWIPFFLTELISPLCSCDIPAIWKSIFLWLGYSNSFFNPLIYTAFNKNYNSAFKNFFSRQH
OPRM1-OPRD1 ag – agonists of human mu-delta opioid receptor heterodimerization; P35372+P41143; cells, OPRM1-OPRD1 heterodimerization, luminescence; activation, % at 9.3 µM; 340,000 tested, 0.3% active; in the data active = activation above about 18%;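 also: 0% = vehicle-treated cells and 100% = reference agonist; values of inactives mirror those of a sister screen read the other way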
MOR-DOR inv ag – inverse agonists of human mu-delta opioid receptor heterodimerization | AID 504357 | inhibition, % at 9.3 µM | P35372+P41143 | 340,000 tested, 0.21% active | cell-based MOR-DOR heterodimer luminescence, inverse agonism; in the data active = inhibition above about 22%, passing the limit was not always enough;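 also: 0% = cells with DMSO and 100% = wells without cells with DMSO; values of inactives mirror those of a sister screen read the other way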
HTR5A inv ag – inverse agonist of human HTR5A in OPRM1-OPRD1 counter-screen; 340,000 tested, 0.083% active; inhibition, % at 9.3 µM; P47898; HTR5A cell line, luminescence, inverse agonism; in the data active = inhibition mostly above about 23%, no sharp cut-off; inactive = mostly below about 18%;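 also: 0% = cells with DMSO and 100% = no-cell wells with DMSO; some compounds called inactive have numbers as strong as hits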
PKA-R1A act – activators of PKA-R1A complex; PKA-R1A dissociation, Cy5-IP20 fluorescence polarization; scaled: DMSO 0%, 113 µM cGMP 100%; activation, % at 11.4 µM; 340,000 tested, 0.083% active;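 active = percent activation above the mean of all tested compounds plus 3 SD, cut at about 19% in these data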;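 also: higher means more PKAc released from R1A so a rise in polarization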
DSG3 Ab inh – inhibitors of pemphigus antibody binding to human desmoglein-3 | P32926 | DSG3-coupled beads, scFv-anti-DSG3-GFP binding, flow cytometry; hits give low values | binding (percent of control), % at 10 µM | 310,000 tested, 0.48% active | AID 588358;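 active = binding more than 3 SD below its plate's average and above zero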;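 also: hits lower antibody fragment binding to DSG3; some compounds called inactive have numbers as strong as hits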
An asterisk follows results filed as active; · = no result given.

#1 N#Cc1ccc(CNC(=O)N2CCOCC2)cc1
#2 NC(=O)C1CCN(C(=O)Nc2ccccc2)CC1
#3 Cc1cc(C)c(/C=C2\C(=O)Nc3ccccc32)[nH]1
#4 Cc1ccc(NC(=O)c2sccc2SCc2cccc(C(F)(F)F)c2)cc1
#5 NS(=O)(=O)c1ccc(NC(=O)Nc2ccc(Cl)cc2)cc1
#6 O=C(N/N=C/c1ccc(Sc2ccccn2)o1)c1cccc([N+](=O)[O-])c1
#7 Cc1ccc(S(=O)(=O)n2c(C)nc3ccccc32)cc1
#8 COc1cccc(C(=O)Nc2cc3c(cc2N2CCOCC2)n(C)c(=O)n3C)c1
#9 COCc1cc(C)nc(SCC(=O)c2ccc(O)c(O)c2)c1C#N

compound no.	1	2	3	4	5	6	7	8	9
HTR5A ag	3.0	8.4	4.6	-3.1	0.5	-2.4	7.0	2.9	-3.9
OPRM1-OPRD1 ag	-2.2	-3.5	2.5	1.9	-1.5	-1.6	-3.5	-0.7	-0.9
MOR-DOR inv ag	12.7	21.3	-13.9	-10.9	7.2	8.5	17.6	3.6	5.2
HTR5A inv ag	-11.7	-14.4	-29.5	-14.6	-13.0	7.9	5.1	-27.5	-14.8
PKA-R1A act	-1.0	4.7	-7.3	-3.5	-2.2	-0.9	0.7	0.4	1.0
DSG3 Ab inh	99.1	·	140.7	96.8	110.4	112.0	101.2	109.3	88.2

Reprinted at random: four entries already listed, in no set order.
#6 O=C(N/N=C/c1ccc(Sc2ccccn2)o1)c1cccc([N+](=O)[O-])c1
#7 Cc1ccc(S(=O)(=O)n2c(C)nc3ccccc32)cc1
#4 Cc1ccc(NC(=O)c2sccc2SCc2cccc(C(F)(F)F)c2)cc1
#5 NS(=O)(=O)c1ccc(NC(=O)Nc2ccc(Cl)cc2)cc1

compound no.	6	7	4	5
HTR5A ag	-2.4	7.0	-3.1	0.5
OPRM1-OPRD1 ag	-1.6	-3.5	1.9	-1.5
MOR-DOR inv ag	8.5	17.6	-10.9	7.2
HTR5A inv ag	7.9	5.1	-14.6	-13.0
PKA-R1A act	-0.9	0.7	-3.5	-2.2
DSG3 Ab inh	112.0	101.2	96.8	110.4

By substructure: the compounds so far containing a cyano group (2)
#1 N#Cc1ccc(CNC(=O)N2CCOCC2)cc1
#9 COCc1cc(C)nc(SCC(=O)c2ccc(O)c(O)c2)c1C#N

compound no.	1	9
HTR5A ag	3.0	-3.9
OPRM1-OPRD1 ag	-2.2	-0.9
MOR-DOR inv ag	12.7	5.2
HTR5A inv ag	-11.7	-14.8
PKA-R1A act	-1.0	1.0
DSG3 Ab inh	99.1	88.2

An excerpt; the hit share may differ from the screen's.
